Screening results deposited in PubChem by National Center for Advancing Translational Sciences (NCATS).
SARS PLpro yeast = qHTS of Yeast-based Assay for SARS-CoV PLP. AID 485353, 2010. S. cerevisiae expressing SARS-CoV PLpro, growth rescue; control for the full effect not named in the record. hit rate 0.19% among 330,000. Potency, µM (doses to about 32.9 µM), without a hit: at the highest dose activity, positive = growth rescue; active means well fitted rising curve with a large enough effect; inconclusive means small, poorly fitted or top-dose-only effect; inactive means no such curve, though single readings can be large or run the other way; note: 0% is about no effect; nearly all actives have a fitted effect of over 55% in size; growth read by luminescence after 48 h
Lassa entry inh = qHTS for Inhibitors of binding or entry into cells for Lassa Virus | AID 540256, 2011 | hit rate 1.2% among 300,000 | Potency, µM (doses to about 37.9 µM), for inactives: at the top dose activity change, negative = inhibition, usual class: inhibitors | Lassa virus pseudotype entry inhibition, cell reporter; control for the full effect not named in the record; active means well fitted inhibition curve with a large enough effect; inconclusive means small, poorly fitted or top-dose-only effect, or effect the other way; inactive means flat fitted curve, though single readings scatter; tested in HEK293 cells; note: % is set by controls: 0 for no effect and ±100 for the full control effect; nearly all actives have a fitted effect of over 50% in size; luciferase read-out
NS1 function inh = qHTS Assay for Inhibitors of Influenza NS1 Protein Function | S. cerevisiae slowed by influenza A NS1, growth recovery by OD600 | Potency, µM (doses to about 46.1 µM), inactives show top-dose activity, positive = more growth | hit rate 0.4% among 270,000; active means well fitted rising curve with a large enough effect; inconclusive means small, poorly fitted or top-dose-only effect; inactive means no such curve, though single readings can be large or run the other way; note: nearly all actives have a fitted effect of over 50% in size
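A cell-based growth assay was used: compounds that relieve NS1-induced slow growth of budding yeast raise OD600. Assay medium was yeast nitrogen base with ammonium sulphate and -URA supplement, pH 6.0, with 2% galactose.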
2A StopGo = High Throughput Screening for Foot and Mouth Disease Virus Antivirals; AID 1159524, 2015; human cells with a luciferase reporter of 2A StopGo recoding; control for the full effect not named in the record; Potency, µM (titrated, usually from 57.9 µM), without a hit: at the top dose signal change, negative = less light; hit rate 1.2% among 410,000; active = well fitted falling curve with a large enough effect; inconclusive = small, poorly fitted or top-dose-only effect; inactive = no such curve, though single readings can be large or run the other way; tested in HEK293T cells; note: % is set by controls: 0 for no effect and ±100 for the full control effect; nearly all actives have a fitted effect of over 45% in size; luciferase light after 4 h
MARV entry inh = qHTS for inhibitors of binding or entry into cells for Marburg Virus; Potency, µM (doses to about 37.8 µM), without a hit: top-dose activity change, negative = inhibition, usual class: inhibitors; hit rate 1.8% among 300,000; Marburg virus pseudotyped entry inhibition, cell reporter; control for the full effect not named in the record; about a third of the inactives were read at about 46 µM; active = well fitted inhibition curve with a large enough effect; inconclusive = small, poorly fitted or top-dose-only effect, or effect the other way; inactive = flat fitted curve, though single readings scatter; tested in HEK293 cells; about a fifth of its hits are not listed in these tables; note: % is set by controls: 0 for no effect and ±100 for the full control effect; luciferase read-out
RE007 growth inh = qHTS Assay for Inhibitors of the HIV-1 protein Vpr. hit rate 0.21% among 360,000. AID 651644, 2012. S. pombe RE007 Vpr strain, BacTiter-Glo ATP luminescence, 24 h; control for the full effect not named in the record. Potency, µM (doses to about 92.2 µM), for the others: at the highest dose activity change, negative = less growth; active = well fitted falling curve with a large enough effect; inconclusive = small, poorly fitted or top-dose-only effect; inactive = no such curve, though single readings can be large or run the other way;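 note: % is set by controls: 0 for no effect and ±100 for the full control effect; nearly all actives have a fitted effect of over 50% in size; the assay follows cell death caused by Vpr and the record does not say whether a fall means rescue or toxicity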
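Fission yeast strain RE007, carrying one chromosomally integrated HIV-1 vpr copy, was seeded at OD 0.01 in PMG+AL medium with 23 nL pinned compound. After 24 h at 30 °C and 99% humidity, viability was read by BacTiter-Glo luminescence.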
Cruzain Triton = qHTS Assay for Promiscuous and Specific Inhibitors of Cruzain (with detergent) | Cruzipain (Trypanosoma cruzi), P25779 | purified cruzain, Z-FR-AMC fluorescence, 0.01% Triton | Potency, µM, for the others: max response, negative = inhibition, hits mostly inhibitors | hit rate 0.43% among 200,000;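 note: plate controls were neutral wells for no effect and buffer without enzyme for full effect; nearly all actives have a fitted effect of over 40% in size; top concentration of the series not given in the record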
Target sequence (P25779 123-467 limits assumed): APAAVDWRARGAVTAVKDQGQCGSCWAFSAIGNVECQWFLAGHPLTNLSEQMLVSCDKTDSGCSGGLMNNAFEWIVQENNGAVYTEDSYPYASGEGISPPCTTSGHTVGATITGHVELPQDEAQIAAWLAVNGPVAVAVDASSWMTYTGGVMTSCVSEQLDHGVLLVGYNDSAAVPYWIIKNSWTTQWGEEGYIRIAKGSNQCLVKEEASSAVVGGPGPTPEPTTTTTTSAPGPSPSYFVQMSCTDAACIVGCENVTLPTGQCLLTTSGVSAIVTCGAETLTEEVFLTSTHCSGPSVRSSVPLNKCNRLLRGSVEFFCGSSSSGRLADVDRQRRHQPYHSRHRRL
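Steps: dispense cruzain (1.5 nM final) in acetate buffer pH 5.5 with DTT and 0.01% Triton X-100; pin-transfer compounds; incubate 15 min RT; add Z-FR-AMC (2 uM final); read fluorescence every 30 s, using the 60 s intensity change.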
Cruzain noTriton = qHTS Assay for Promiscuous and Specific Inhibitors of Cruzain (without detergent). purified cruzain, Z-FR-AMC fluorescence, no detergent. Potency, µM, for inactives: max response, negative = inhibition, hits mostly inhibitors. hit rate 2.3% among 200,000. AID 1476, 2009;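 note: plate controls were enzyme without inhibitor for no effect and buffer without enzyme for full effect; nearly all actives have a fitted effect of over 40% in size; top concentration of the series not given in the record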
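Detergent-free condition (0.00005% Triton X-100) in acetate buffer pH 5.5 with DTT. 1.5 nM enzyme and compound were pre-mixed 15 min, then 2 uM Z-FR-AMC substrate added; reaction progress from fluorescence change between first and third reads (60 s).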
* hit, by the source's call; ? = inconclusive; nt = not tested or not shown; & = joins results of further samples; [ ] = another dose, or the depositor's remark. Unless noted, calls come from the whole dose curve; as a rule, active = well fitted curve in the direction sought with a large enough effect; inconclusive = small, poorly fitted or top-dose-only effect, or another doubt; inactive = no such curve, though single readings can be large; an effect the other way counts as inactive or inconclusive. Potency is the fitted concentration of half-maximal effect.

Fields – Cruzain Triton, Lassa entry inh, MARV entry inh, RE007 growth inh, SARS PLpro yeast, NS1 function inh, Cruzain noTriton, 2A StopGo
Cc1ccc(SCC(=O)Nc2ccc(-c3nnc(-c4ccco4)o3)cc2)cc1
    2.7%, ?, ?, 13%, 0%, -15%, -4%, 16%
COc1cccc(-c2nc(CS(=O)(=O)CC(=O)NC3CCCc4ccccc43)c(C)o2)c1 (stereo unspecified)
    -5.9%, nt, nt, -2%, -3%, -1%, 5%, -7%
CNCC(O)c1ccc(O)cc1 (stereo unspecified)
    1.5%&5.1%&-0.6%, -7%&11%, ?, -1%, -8%, 7%&-3%, 2%&4%&-3%, ?
COc1cc(NC(=O)CCCOc2ccc(Cl)cc2Cl)c(C(=O)O)cc1OC
    nt, nt, nt, 14%, 0%, 1%, nt, -8%
COc1cccc(C(=O)NCC(=O)OCC(=O)c2ccccc2)c1
    ?, 6%, ?, -11%, -5%, 12%, ?, -1%
COc1ccc(C(=O)Nc2ccc(OCC(=O)N3CCOCC3)cc2)c(OC)c1OC
    nt, ?, -3%, -1%, 2%, ?, nt, 0%
Cc1ccc(S(=O)(=O)N2CCN(c3nc(C)nc4sc(C)c(C)c34)CC2)cc1
    5.2%, nt, 0%, nt, 0%, -18%, -4%, nt
CC1CN(C2CC(C)(C)NC(C)(C)C2)CCC1=O (stereo unspecified)
    5.4%, 3%, 0%, 15%, 1%, 3%, -2%, 53%[activator]
CCOc1ccc(C(=O)Nc2ccc3oc(-c4ccc5ccccc5c4)nc3c2)cc1
    -1.3%, 5%[46.1 µM], nt, nt, nt, nt, -3%, 14%
Cc1cccc([N+](=O)[O-])c1NC(=O)COC(=O)C1CC2CCCC(C1)C2=O (stereo unspecified)
    nt, 18%, -1%[46.1 µM], 1%, nt, nt, nt, -13%
CC1(C)C(Cl)C(=O)C(C(=O)c2ccccc2)C(=O)C1Cl (stereo unspecified)
    nt, 22%[46.1 µM], -1%[46.1 µM], -15%, 2%, -1%, nt, 30%
CC(C)=CC1C=C(C)C(C)C2C(=O)NNC(=O)C12 (stereo unspecified)
    6.6%, 1%, 3%, -3%, 2%, 12%, 3%, nt
CCc1ccc(NC(=O)CS(=O)CC(=O)Nc2ccc(N3CCOCC3)cc2)cc1 (stereo unspecified)
    nt, -6%[46.1 µM], ?, 15%, -2%, 0%, nt, 51%[activator]
O=C1Nc2ccc([N+](=O)[O-])cc2OC1CCN1CCN(c2ccccc2)CC1 (stereo unspecified)
    nt, 9%[46.1 µM], ?, -7%, 0%, -3%, nt, ?
COc1ccc(/C=N/c2c(-c3ccco3)nc3ccccn23)cc1OC
    ?, 4%, 21%, -13%, -6%, 25%, ?, -13%

Next compounds follow.
Fields – Cruzain Triton, Lassa entry inh, MARV entry inh, RE007 growth inh, SARS PLpro yeast, NS1 function inh, Cruzain noTriton, 2A StopGo
Cc1cc(=O)[nH]c(SCc2nc3ccccc3n2Cc2ccccc2)n1
    4.1%, -5%, ?, -9%, 6%, -3%, 1%, -9%
CC(Oc1ccc2c3c(c(=O)oc2c1)CCCC3)C(=O)NCC1CCC(C(=O)O)CC1 (stereo unspecified)
    nt, nt, nt, 8%, 3%, 7%, nt, 14%
CCC(=O)Nc1ccc(NC(=O)c2c(C)nc3ccccn23)cc1
    1.5%, ?, 1%, -2%, 9%, -3%, -9%, nt
CCn1c(=O)c(C(=O)NCc2cccnc2)c(O)c2ccccc21
    -6.0%, 1%, ?, -11%, 3%, -62%, ?, -7%
COc1ccc2oc(=O)c(C(=O)NCc3ccccc3)cc2c1
    nt, 25%[46.1 µM], -6%[46.1 µM], -3%, 0%, -8%, nt, 2%
O=C(NCC(c1cccs1)S(=O)(=O)c1cccs1)c1ccc(C(F)(F)F)cc1 (stereo unspecified)
    -4.7%, ?, nt, nt, nt, nt, -4%, -3%
O=C1NC(=S)NC(=O)C1=Cc1ccc(OCC(=O)N2CCCC2)cc1
    nt, 20%[46.1 µM], 21%[46.1 µM], 2%, 0%, 7%, nt, -10%
COc1ccc(S(=O)(=O)c2nnn(-c3cccc(OC)c3)c2N)cc1
    nt, ?, ?, 15%, 3%, nt, nt, 0%
CCCCCc1ccc(-c2ccc(/C=C/C(N)=O)cc2)nc1
    -1.0%, 2%, -4%, -4%, -5%, -3%, 13µM*, -13%
O=C(COC(=O)c1cnccn1)c1cccc([N+](=O)[O-])c1
    nt, nt, nt, 2%, 2%, 3%, nt, 3%
Cc1sc2ncnc(N3CCC(C(=O)Nc4nc(-c5cccs5)cs4)CC3)c2c1C
    nt, 4%, 2.2µM*, 5%, 2%, nt, nt, -18%
O=C(CCC1COc2ccccc2O1)Nc1ccc(Cl)cn1 (stereo unspecified)
    -5.5%, 3%, -17%, -5%, -14%, -11%, -11%, 0%
COCCn1c(C)cc(C2=NNC(=NC(C)(C)C)SC2)c1C
    nt, 7%[46.1 µM], -24%[46.1 µM], 5%, 3%, 10%, nt, ?
O=C(Nc1ccc(-c2nc3ccc(NC(=O)c4cccs4)cc3[nH]2)cc1)c1cccs1
    11µM*, ?, ?, -2%, -7%, 2%, 25µM*, ?
COc1ccc(C(C#N)N2N=C(C)CC2c2ccccc2)cc1OC (stereo unspecified)
    nt, nt, nt, -4%, 8%, 20%, nt, 2%

Whole records as entered above:
Shown for COc1ccc(S(=O)(=O)c2nnn(-c3cccc(OC)c3)c2N)cc1 = Cruzain Triton = nt; Lassa entry inh = ?; MARV entry inh = ?; RE007 growth inh = 15%; SARS PLpro yeast = 3%; NS1 function inh = nt; Cruzain noTriton = nt; 2A StopGo = 0%
Shown for CC(Oc1ccc2c3c(c(=O)oc2c1)CCCC3)C(=O)NCC1CCC(C(=O)O)CC1 (stereo unspecified) = Cruzain Triton = nt; Lassa entry inh = nt; MARV entry inh = nt; RE007 growth inh = 8%; SARS PLpro yeast = 3%; NS1 function inh = 7%; Cruzain noTriton = nt; 2A StopGo = 14%
Shown for O=C(NCC(c1cccs1)S(=O)(=O)c1cccs1)c1ccc(C(F)(F)F)cc1 (stereo unspecified) = Cruzain Triton = -4.7%; Lassa entry inh = ?; MARV entry inh = nt; RE007 growth inh = nt; SARS PLpro yeast = nt; NS1 function inh = nt; Cruzain noTriton = -4%; 2A StopGo = -3%

(more compounds)
Fields – Cruzain Triton, Lassa entry inh, MARV entry inh, RE007 growth inh, SARS PLpro yeast, NS1 function inh, Cruzain noTriton, 2A StopGo
COc1ccccc1C(=O)C1CCCN(C(=O)CN2CCCCC2=O)C1 (stereo unspecified)
    nt, 0%, -4%[46.1 µM], -3%, 0%, 0%, nt, 0%
Cc1ccnc(NC(=O)CC(c2ccccc2)c2ccccc2)n1
    nt, nt, nt, 8%, -1%, -4%, nt, -10%
COc1cccc(C(=O)Nc2cccc(C(=O)OCc3cc(=O)n4nc(C(C)C)sc4n3)c2)c1
    1.9%, -12%[46.1 µM], nt, nt, nt, nt, -9%, 15%
CCOC(=O)N1CCN(C(=O)CSc2ccc(C(=O)OC)cc2[N+](=O)[O-])CC1
    nt, nt, nt, 30%, -1%, -4%, nt, -6%
O=C(c1ccco1)N1CCN(C(=O)c2cc(-c3ccccn3)nc3ccccc23)CC1
    -1.5%, -17%, ?, -16%, 9%, -11%, -1%, 0%
CCO[C@@H]1OC(C(=O)O)=C[C@H](c2ccc(Br)cc2)[C@H]1CCCO
    nt, nt, nt, -8%, 0%, 3%, nt, -8%
Fc1ccc(-c2noc3ncnc(NC4CCCCC4)c23)cc1
    -1.7%, 23%[46.1 µM], nt, nt, nt, nt, -9%, -22%
CCCS(=O)(=O)N1CCN(c2ccccn2)CC1
    1.3%, 12%, -4%, -8%, 6%, 4%, 2%, 12%
OCCC1CN(C2CCN(c3ccccc3F)CC2)CCN1Cc1ccccc1 (stereo unspecified)
    nt, nt, nt, -10%, -1%, 2%, nt, -1%
COc1ccc2c(Cl)c(-c3nnc(SCC(=O)c4ccccc4)n3C)sc2c1
    -1.0%, ?, ?, 10%, 0%, 5%, 0%, -14%
O=C(Nc1ccc(-c2nc3ccccc3o2)cc1)C1CCCO1 (stereo unspecified)
    -4.6%, ?, ?, ?, -15%, -7%, 0%, -42%
Cc1n[nH]c(C)c1S(=O)(=O)N1CCC(C(=O)Nc2cccc(F)c2)CC1
    nt, nt, nt, 8%, 1%, 17%, nt, 7%
CCOC(=O)c1ccc(CSc2n[nH]c(C)n2)o1
    0.1%, 1%, 5%, -10%, 2%, -4%, 2%, 21%
O=C(Cn1cnc2c(oc3ccccc32)c1=O)Nc1ccccc1C(F)(F)F
    -9.3%, -15%[46.1 µM], nt, nt, nt, nt, -24%, 11%
Nc1ccn(Cc2cccc(F)c2)n1
    nt, nt, nt, -8%, -1%, 0%, nt, 3%

Continuation:
Fields – Cruzain Triton, Lassa entry inh, MARV entry inh, RE007 growth inh, SARS PLpro yeast, NS1 function inh, Cruzain noTriton, 2A StopGo
C=CCn1c(SCC(=O)Nc2ncc(Cc3ccc(Br)cc3)s2)nnc1-c1ccncc1
    4.5%, -6%, -21%, 4%, 3%, 10%, -17%, -22%
CCCCNC(=O)C(=O)NCCCn1ccnc1
    nt, -1%, -4%[46.1 µM], 0%, -1%, nt, nt, -14%
NS(=O)(=O)c1ccc(NC(=O)COC(=O)C2CC2)cc1
    nt, 6%[46.1 µM], -19%[46.1 µM], -1%, 1%, nt, nt, 0%
CSC1=N/C(=C/c2cccnc2)C(=O)N1Cc1ccc(Cl)cc1
    nt, nt, nt, 7%, 0%, 1%, nt, -19%
